# Bioassay records deposited in PubChem by several laboratories.
# RecA splice inh = inhibitors of M. tuberculosis RecA intein splicing; cell-free RecA intein splicing, fluorescence; 290,000 compounds, 0.75% hits; inhibition, %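 (about 9 µM by stock and volumes)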; P9WHJ3; in the data active = inhibition above about 30%; inconclusive = no clear call, values can overlap the other calls;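 note: 0% = vehicle wells and 100% = reference inhibitor control wells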
# Target sequence (P9WHJ3 whole entry, looked up, canonical isoform): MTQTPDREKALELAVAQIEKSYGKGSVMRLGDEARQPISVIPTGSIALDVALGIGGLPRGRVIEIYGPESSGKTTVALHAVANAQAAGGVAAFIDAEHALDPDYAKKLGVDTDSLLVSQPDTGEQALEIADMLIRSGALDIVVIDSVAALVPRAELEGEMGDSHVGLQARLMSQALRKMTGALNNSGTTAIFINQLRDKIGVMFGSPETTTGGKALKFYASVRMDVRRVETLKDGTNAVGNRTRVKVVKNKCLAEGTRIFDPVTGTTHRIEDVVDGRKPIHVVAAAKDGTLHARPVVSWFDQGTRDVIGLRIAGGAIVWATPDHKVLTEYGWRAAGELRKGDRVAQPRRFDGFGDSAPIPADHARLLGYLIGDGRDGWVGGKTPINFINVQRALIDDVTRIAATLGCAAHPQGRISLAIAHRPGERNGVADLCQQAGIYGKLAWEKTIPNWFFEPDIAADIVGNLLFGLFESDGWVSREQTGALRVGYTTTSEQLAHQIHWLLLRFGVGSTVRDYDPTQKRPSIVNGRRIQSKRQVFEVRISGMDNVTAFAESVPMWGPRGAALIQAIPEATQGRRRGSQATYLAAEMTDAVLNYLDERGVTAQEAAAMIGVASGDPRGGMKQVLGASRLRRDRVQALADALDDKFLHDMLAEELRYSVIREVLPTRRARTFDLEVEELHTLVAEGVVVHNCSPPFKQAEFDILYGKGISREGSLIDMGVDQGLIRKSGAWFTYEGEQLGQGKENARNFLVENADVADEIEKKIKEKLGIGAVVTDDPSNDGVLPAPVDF
# Mtb growth = M. tuberculosis H37Rv growth inhibitors, H37Rv strain (AID 1626); M. tuberculosis H37Rv growth inhibition; higher % means a stronger effect; inhibition, % at 10 µM; hits with a dose series show IC50 in µM; 220,000 compounds, 0.95% hits;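 active = confirmed in a dose series; inconclusive = inhibition above 80% but not taken into the dose series; inactive = below 80% or under 30% at every dose of the series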;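 note: bacteria incubated seven days before Alamar blue readout; 0% = bacteria only wells and 100% = bacteria with antibiotic wells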
# YopH inh = blocks Yersinia enterocolitica YopH tyrosine phosphatase. AID 898. inhibition, %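 (about 10 µM by stock and volumes)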. fluorescence Ex485/Em525. 140,000 compounds, 0.16% hits;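 active = inhibition of 50% or more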;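 note: controls were vehicle for no effect and minimum signal wells for full effect; inactives centre near -20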
# Arbovirus anti = arbovirus infection inhibition; arbovirus infection cell-based antiviral screen; inhibition, % at 10 µM; 200,000 compounds, 0.37% hits;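 active = inhibition from about 30%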;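 note: bluetongue infection of BSR cells; cell survival read as ATP light after 72 h; 0% = infected wells without compound and 100% = uninfected wells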
# Mtb bLac sens = beta-lactam sensitization of Mtb H37Rv | M. tuberculosis H37Rv growth with meropenem, percent inhibition; hits of this screen are not shown here | inhibition, % at 25 µM | 330,000 compounds, 0.27% hits | AID 434955;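 active = about 74% or more and at least 40 points above the plate without the antibiotic, then above 30% in a dose series; inconclusive = first-round hits that could not be retested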;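 note: growth measured after seven days incubation then overnight dye step; 0% = bacteria only wells and 100% = bacteria with antibiotic; twin plates without the antibiotic show which effects depend on it; some results filed as inactive read as strong as hits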
# Arbovirus anti repeat = second read-out of Arbovirus anti, no call of its own (marks repeat the call); inhibition, %; measured here: 10K subset replicate screen; many hits read low in the repeat;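 first of two repeat runs on a subset; 0% = infected and 100% = uninfected wells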
# An asterisk follows results filed as active; ? = inconclusive; / = no result given. Some of the compounds tested; the hit share may differ from the screen's.
# Sample of the layout:
SMILES,RecA splice inh,Mtb growth,YopH inh,Arbovirus anti,Mtb bLac sens,others
Cn1c(C(=O)N2CCCC(C(=O)NCc3ccccc3)C2)cc2sccc21 (centres undefined),1.1,/,/,/,4,
CC(=O)CC(C)(C)NC(C)=S,-6.8,-4%,/,/,2,
Cc1ccc(NP(=O)(c2ccc(N(C)C)cc2NC(=O)c2cccs2)N2CCOCC2)cc1 (centres undefined),1.9,6%,-35,6,-1,

# The whole of this part, from the start:
SMILES,RecA splice inh,Mtb growth,YopH inh,Arbovirus anti,Mtb bLac sens,others
Cn1c(C(=O)N2CCCC(C(=O)NCc3ccccc3)C2)cc2sccc21 (centres undefined),1.1,/,/,/,4,
CC(=O)CC(C)(C)NC(C)=S,-6.8,-4%,/,/,2,
Cc1ccc(NP(=O)(c2ccc(N(C)C)cc2NC(=O)c2cccs2)N2CCOCC2)cc1 (centres undefined),1.9,6%,-35,6,-1,
O=c1c2c(nc3cc(-c4cccc(Cl)c4)[nH]n13)CCC2,-0.9,8%,-7,-11,63,
CCn1c(SCC(=O)Nc2cc(C)on2)nnc1-c1ccco1,-1.0,-6%,-6,1,-2,
O=C1c2cccc3cc(Br)cc(c23)C(=O)N1Nc1ccc(Br)cc1,-3.2,/,-26,2,3,
COc1cccc(C(=O)NN2CC(O)=C(c3nc(C)cs3)C2=N)c1,/,-5%,/,/,2,
CCOP(=S)(OCC)SCC(=O)NC(C(=O)O)C(C)C (centres undefined),-2.5,-1%,-8,4,-4,
COc1ccc(/C=C(\C#N)C(=O)NCCCn2ccnc2)cc1,0.2,-1%,-26,3,-2,
Cc1cc(C)c2c(c1)cc(C)c1nnc(SCC(=O)Nc3cc(C)on3)n12,1.1,2%,-12,-7,2,
O=C(/C=C/c1cccc(F)c1)c1ccc(N2CCOCC2)cc1,7.0,9%,/,/,-3,
COc1ccccc1CNC(=O)C(=O)NCCC1CCCCN1S(=O)(=O)c1cccs1 (centres undefined),0.0,/,/,/,-12,
Cc1ccc(S(=O)(=O)NCC(=O)OCC(=O)NCc2ccc(F)cc2)cc1,-2.2,-1%,/,2,5,
CO/N=C1\CCn2c1c(C)c1ccccc12,6.8,-9%,/,/,-9,
CC(C)(C)c1ccc(OCCC(=O)OCC(=O)NC2CCS(=O)(=O)C2)cc1 (centres undefined),0.9,/,/,/,-3,
CCOC(=O)C1=C(c2ccccc2)O/C(=C(\C(=O)OC)C(F)(F)F)S1,2.4,11%,5,4,2,
Cc1cc(C)n2c(SCC(C)C)nnc2n1,-0.5,-7%,/,5,-5,
CCc1ccc(N(CC(=O)Nc2ccccc2C(=O)N2CCCC2)S(C)(=O)=O)cc1,0.7,/,/,/,10,
O=C(Nc1ncc(Cc2cccc(Cl)c2Cl)s1)C1CCCO1 (centres undefined),5.2,4%,/,-14,-3,
Cc1ccc(CNC(=O)CCCn2c(=O)[nH]c3ccccc3c2=O)cc1,-1.4,-17%,-32,1,1,
O=C(OCC(=O)N1CCN(C(=O)c2ccco2)CC1)c1cc(-c2cccc(Br)c2)nc2ccccc12,11,14%,2,-27,98,
O=C(COC(=O)c1ccc(F)cc1F)NCCNC(=O)COC(=O)c1ccc(F)cc1F,0.2,/,/,/,-2,
Cc1cc(C(=O)Nc2ccon2)cs1,4.1,3%,31,4,1,
N/C(=N\OC(=O)c1cccc([N+](=O)[O-])c1)c1cccnc1,0.8,7%,-42,-6,0,
COC(=O)CC1=NC(=O)CS1,-0.9,-5%,-12,-7,-11,
CCOc1cc(OCC)cc(C(=O)Nc2cccnc2)c1,4.8,-6%,-20,-2,9,Arbovirus anti repeat=-2
CCOC(=O)C1=C(COC(=O)c2cccs2)NC(=O)NC1C (centres undefined),0.6,/,/,/,-1,
Cc1ccc(C)c(NC(=O)CN(C)C(=O)Cc2ccc(Cl)cc2Cl)c1,3.2,/,/,/,6,
N[C@@H](Cc1c[nH]c2ccccc12)c1nnc(SCc2ccc(Cl)cc2)o1,6.1,1%,-38,-3,-7,
CCCCNC(=O)CSc1nc(CCC)nc2ccccc12,6.2,3%,/,0,-5,
CCC(C)[C@H](NC(=O)C1CCC(CNC(=O)[C@@H]2CCCN2C(=O)OC(C)(C)C)CC1)C(=O)O (some centres undefined),-4.1,/,/,/,5,
Cc1cc([N+](=O)[O-])ccc1N1C(=O)c2ccc(C(=O)Nc3ccccc3C(=O)O)cc2C1=O,-0.4,/,/,/,-2,
O=C(CSc1nc2ccc(NC(=O)CSc3nnnn3Cc3ccccc3)cc2s1)Nc1ccccc1,0.4,-9%,-5,-7,12,
Cc1ccc(C(=O)NCCCNC(=O)c2ccco2)cc1,-0.1,/,/,/,-2,
CCCCOCCCNC(=O)COc1ccccc1,1.2,-6%,7,-3,6,Arbovirus anti repeat=-3
N#Cc1cc(-c2ccccc2)nc(N2CCNCC2)n1,/,-2%,/,/,-2,
Cc1ccc(C)c(NC2=NS(=O)(=O)c3ccccc32)c1,-2.8,-4%,-1,7,-6,
COC(=O)c1c(NS(=O)(=O)c2ccc(C)cc2)sc2c1CCC(C)C2 (centres undefined),/,/,-67,8,-5,
C/C(=N\N=C(c1ccccc1)c1ccccc1)c1cccs1,11,3%,-40,-3,17,
CCOc1ccc2c(c1)N(C(=O)CN1C(=O)CCC1=O)C(C)(C)C=C2C,2.9,0%,-37,8,-6,

# Pulled one by one from the entries so far:
SMILES,RecA splice inh,Mtb growth,YopH inh,Arbovirus anti,Mtb bLac sens,others
Cc1cc([N+](=O)[O-])ccc1N1C(=O)c2ccc(C(=O)Nc3ccccc3C(=O)O)cc2C1=O,-0.4,/,/,/,-2,
N/C(=N\OC(=O)c1cccc([N+](=O)[O-])c1)c1cccnc1,0.8,7%,-42,-6,0,
CC(C)(C)c1ccc(OCCC(=O)OCC(=O)NC2CCS(=O)(=O)C2)cc1 (centres undefined),0.9,/,/,/,-3,
Cc1ccc(C(=O)NCCCNC(=O)c2ccco2)cc1,-0.1,/,/,/,-2,
COc1cccc(C(=O)NN2CC(O)=C(c3nc(C)cs3)C2=N)c1,/,-5%,/,/,2,

# Next part.
SMILES,RecA splice inh,Mtb growth,YopH inh,Arbovirus anti,Mtb bLac sens,others
CCCCCNC(=O)c1cc(S(=O)(=O)N2CCCCC2)ccc1F,0.5,-2%,-15,7,-7,
CC(=O)Nc1ccc(C(=O)Cn2nnc3ccccc3c2=O)cc1,-0.7,-6%,-44,4,0,
Cc1cc(C)cc(NC(=O)N2CCCCCCC2)c1,-0.8,6%,/,1,13,
O=C(Nc1ccc(S(=O)(=O)N2CCCCC2)cc1)c1ccc(CN2CCc3ccccc3C2)cc1,7.7,39%,-14,-9,88,
CCCCOc1ccc(/C=C/C(=O)OCC(=O)N2CC(=O)Nc3ccccc32)cc1OCC,-0.7,11%,-20,-19,5,
COc1ccc(-c2cc(C(=O)N3CCN(C(c4ccccc4)c4ccccc4)CC3)no2)cc1,2.1,23%,-19,18,59,
COc1cccc(CNC(=O)CCNC(=O)c2ccc(Br)o2)c1,2.2,/,/,/,1,
Cc1ccc(Nc2ncnc3sc(C)c(C)c23)cc1C,1.2,12%,-1,-4,18,
Cc1ccccc1OCC(=O)NCC1CCCO1 (centres undefined),1.2,-6%,-12,2,-7,
O=C1CSC(=Nc2ccccc2)N1,-0.7,-2%,-29,2,-11,
O=C(NCCCN1CCOCC1)c1cccc(S(=O)(=O)Nc2ccccc2Cl)c1,-5.5,/,/,/,2,
CCCc1cc(NCc2ccccn2)n2nc(C)c(-c3ccccc3)c2n1,-0.7,4.3µM*,/,/,100,
CCOc1ccccc1NC(=O)CSc1nnc(-c2cnccn2)n1C,-6.0,-5%,-60,-4,-12,Arbovirus anti repeat=3
O=C1CC(=O)N(Cc2ccccc2)C(=O)N1CCCCCCN1C(=O)CC(=O)N(Cc2ccccc2)C1=O,5.1,-26%,/,/,0,
CCN(Cc1ccccc1)C(=O)c1cc2c(OC)c(OC)c(OC)cc2[nH]1,2.3,/,/,/,1,
CSc1ccc(CN2CCSCC2)cc1,0.4,/,/,/,-4,
CCCCN(CCCC)CCNC(=O)c1cn(CC)c2ccc(S(=O)(=O)N(C)C3CCCCC3)cc2c1=O,1.8,/,/,/,3,
Cc1c(O)nc(SC2CC(=O)N(c3ccccc3)C2=O)[nH]c1=O (centres undefined),-0.5,-8%,-10,3,-2,
CC(=O)c1ccc(NC(=S)NCC(c2ccco2)N2CCCC2)cc1 (centres undefined),/,-9%,/,0,0,
Cc1ccc(NC(=O)c2sc(C)nc2C)c(C)c1,0.0,/,/,/,-4,
CCOC(=O)CN1CC23C=CC(O2)C(C(=O)O)C3C1=O (centres undefined),-1.0,-6%,-27,3,2,Arbovirus anti repeat=4
COc1ccc(C2=CC(c3ccc(OC)c(OC)c3)c3c(c4ccccc4oc3=O)O2)cc1OC (centres undefined),2.4,12%,/,/,23,
COc1cccc(/C=N/NC(=O)c2ccccc2)c1OS(=O)(=O)c1ccccc1,2.2,4%,-16,-7,9,
O=C(Cc1ccccc1)N1CCNCC1,0.4,-4%,/,2,-1,
O=C1NC(=S)N/C1=C/c1cc([N+](=O)[O-])ccc1O,3.5,-17%,-28,4,-2,
Cc1cc(C(=O)N/N=C/c2ccc([N+](=O)[O-])s2)c2ccccc2n1,-5.9,/,/,/,99,
CSc1ccccc1NC(=O)c1cnc2sc(C)cn2c1=O,0.0,/,/,/,-1,
Cc1ccc(O)c(/C=N/NC(=O)c2[nH]ncc2Br)c1,-6.5,2%,-25,-14,2,
CCOc1ccc(NC(=O)COc2ccc3c(c2)OCO3)cc1,2.3,/,/,/,95,
Cc1cccc(C(=O)NCC(=O)OC(C)C(=O)Nc2ccc(Cl)cn2)c1 (centres undefined),-5.1,/,/,/,-1,
Cc1c(C(N)=O)sc2ncn(CC(=O)NCCc3ccccc3)c(=O)c12,-1.2,-3%,/,-2,-6,
CCOC(=O)Cc1csc(NC(=O)CCSc2ccccc2)n1,2.0,1%,/,2,1,
CN1CCN(C(=O)c2cccn(Cc3cccc(Cl)c3)c2=O)CC1,-0.4,/,/,/,-6,
CCCC(C)NC(=O)C1CC(=O)N(CCc2ccc(F)cc2)C1 (centres undefined),1.9,/,/,/,0,
COC(=O)c1cc(=O)n(Cc2cccs2)c(=Nc2ccc(F)cc2)s1,6.6,79%,/,-22,86,
O=C(COC(=O)/C=C/c1ccc(OC(F)F)cc1)NC1CCCCC1,-1.9,/,/,/,-2,
CCOC(=O)C1=C(CS(=O)(=O)c2ccc(F)cc2)NC(=O)NC1c1ccc(O)c(O)c1 (centres undefined),-3.5,/,/,/,-7,
COc1ccc(NC(=O)N2CCN(S(C)(=O)=O)CC2)cc1,-2.4,4%,/,2,-3,
Cc1nc2ccc(S(=O)(=O)NCC(=O)N3CCC(N4CCCCC4)CC3)cc2s1,-0.2,-6%,-20,3,-3,
Cc1ccnc(NC(=O)c2ccco2)n1,1.9,-6%,/,10,0,
COc1ccc(CC(=O)NCC(=O)N/N=C/c2cc(Br)ccc2OC)cc1,-2.8,/,/,/,6,
COc1ccccc1C1C(C(=O)c2ccc(C)o2)=C(O)C(=O)N1c1cc(C)on1 (centres undefined),0.9,/,/,/,3,
C/C(=N\NC(=O)c1ccc(CSc2nncn2C)cc1)c1ccc(C#N)cc1,0.5,-7%,-13,4,-9,
O=C(CCCN1C(=O)/C(=C/c2ccccc2Cl)SC1=S)NNC(=O)c1ccncc1,-0.4,?,/,/,99,
Cc1ccsc1CNC1C2CC3CC(C2)CC1C3 (centres undefined),2.6,-4%,/,-7,-9,
C(=N\n1cnnc1)/C1CCCCC1,-6.2,-11%,-5,3,-17,Arbovirus anti repeat=3
COc1cccc(C(C(=O)NC(C)(C)C)N(Cc2ccc(F)cc2)C(=O)CCC(=O)Nc2cc(C)on2)c1OC (centres undefined),4.3,/,/,/,0,
O=C(O)c1ccc(NS(=O)(=O)c2cccc(C(=O)Nc3ccc([N+](=O)[O-])cc3)c2)cc1,1.2,/,/,/,-4,
CCC1(CC)C(=O)N(C)C(=O)NC1=Nc1ccccc1,-1.5,-9%,-39,4,-2,
Cn1c(=O)[nH]c(=O)c2c1nc(N1CCCCCC1)n2CCCSc1nc2ccccc2o1,1.1,-2%,-1,13,1,
CC(=O)N1CCN(S(=O)(=O)c2ccc(S(=O)(=O)N3CCCC(C)C3)cc2)CC1 (centres undefined),3.3,/,/,/,-8,
Cc1cc(Br)ccc1-n1[nH]c(C)c(C=Nc2cccc3nsnc23)c1=O,12,3%,/,-15,-1,
O=C(CCCO)N/N=C/c1ccccc1[N+](=O)[O-],0.4,4%,16,5,-3,
Cc1ccc(-c2ccc(CCC(=O)O)n2-c2ccc(O)cc2)cc1,-0.5,/,-16,1,3,
COc1ccc(CNC(=O)c2cnn3c(C(F)F)cc(C)nc23)cc1,-0.2,-8%,-11,-1,-10,
